Screening results deposited in PubChem BioAssay by National Center for Advancing Translational Sciences (NCATS).
Rango complex inh: Rango-importin beta binding inhibition. Q14974. Rango CFP/YFP FRET sensor + importin beta, 45 min. Potency, µM (titrated, usually from 92.2 µM), for inactives: at the highest dose inhibition of complex formation. 340,000 compounds, 0.031% hits. AID 540263; active = rising FRET ratio curve, often small or poorly fitted; inconclusive = mostly compound fluorescence or quenching in the first reads; inactive = flat curves in all reads;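 further: potency means the concentration at half of the fitted maximal effect; 0% = DMSO wells and 100% = buffer wells lacking importin beta; nearly all actives have a fitted effect of over 15% in size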
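FRET biosensor (snurportin 1 IBB flanked by EYFP and cerulean), 50 nM, with compound 5 min, then 0.125 microM importin beta in PBS, 1 mM DTT, 0.02% Tween-20, 0.1% BSA. CFP/YFP ratio read after 45 min at room temperature; pre-read flags interference.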
GLA inh pH 4.5: blocks human alpha-galactosidase A at pH 4.5; purified enzyme, 4-MU-alpha-Gal fluorescence, pH 4.5; P06280; AID 1467; 230,000 tested, under 10 active; activity change, negative = inhibition, % at 105 µM; inconclusive = small, poorly fitted or top-dose-only inhibition, or a rising curve; inactive = flat fitted curve, though single readings scatter; no compound was filed as active;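 further: 0% = full activity with enzyme and -100% = basal without enzyme; dose as in the result columns while the protocol names 77 µM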
Target sequence (P06280 whole entry, looked up): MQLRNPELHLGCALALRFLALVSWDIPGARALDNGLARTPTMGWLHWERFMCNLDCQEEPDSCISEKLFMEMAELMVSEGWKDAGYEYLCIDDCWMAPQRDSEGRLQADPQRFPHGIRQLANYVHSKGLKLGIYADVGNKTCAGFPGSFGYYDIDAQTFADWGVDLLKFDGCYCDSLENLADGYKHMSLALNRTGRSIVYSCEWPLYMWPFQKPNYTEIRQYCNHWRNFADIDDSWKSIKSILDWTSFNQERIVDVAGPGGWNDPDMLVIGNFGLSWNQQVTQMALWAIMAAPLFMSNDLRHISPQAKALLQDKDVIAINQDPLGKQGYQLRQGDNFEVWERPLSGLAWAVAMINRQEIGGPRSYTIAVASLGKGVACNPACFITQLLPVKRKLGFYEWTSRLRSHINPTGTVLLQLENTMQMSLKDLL
Rango release inh: inhibitors of RanGTP-induced Rango-importin beta complex dissociation | 340,000 compounds, 0.071% hits | AID 540253 | Biochemical FRET Rango-importin beta, RanGTP-induced dissociation | Potency, µM (top dose mostly 46.1 µM), for inactives: at the top dose activity change, negative = inhibition; active means falling FRET ratio curve, often poorly fitted, with flat reads before Ran was added; inconclusive means other falling curves, or compound fluorescence or quenching; inactive means flat or rising ratio curve;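 further: potency means the concentration at half of the fitted maximal effect; % of control where 0% means no effect; nearly all actives have a fitted effect of over 45% in size; -100% = wells without RanGTP and RCC1; the record marks most hits as doubtful in a second field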
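Compounds sat 5 min at room temperature with 0.1 uM Rango biosensor plus 0.25 uM importin beta, then FRET pre-read. RanGTP-RCC1 (0.6 uM Ran, 2mM GTP, 0.2 uM RCC1) added for 45 min, and the CFP/YFP post-read measured blocked complex dissociation.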
miR-21 FLuc: miR-21 reporter, rising signal; HeLa miR-21 FLuc reporter, luciferase, 48 h; Potency, µM (titrated, usually from 38.3 µM), without a hit: top-dose reporter change, positive = more light; 340,000 tested, under 10 active; AID 2288; active = well fitted rising curve with a large enough effect; inconclusive = small, poorly fitted or top-dose-only effect; inactive = no such curve, though single readings can be large or run the other way;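 further: % of control where 0% means no effect; miR-21 action dims this reporter so a rising signal means less miR-21 action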
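Luminescence from a firefly luciferase reporter carrying a miR-21 binding site downstream, stably expressed under a CMV promoter in HeLa cells that make miR-21 endogenously, reports miRNA modulation after 48 h compound exposure up to approximately 40uM final.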
Starred values were filed as active, the others as inactive; ? = inconclusive; / = not tested or not shown.

Every second line gives: miR-21 FLuc | Rango complex inh | Rango release inh | GLA inh pH 4.5
> CCOC(=O)C(C)CC(C)C(=O)N1CCOCCN(C(=O)C(C)CC(C)C(=O)OCC)CCOCC1 (stereo not given)
→ 0% | -1.4% | 20% | -12
> CCOC(=O)c1c(C)[nH]c(C(=O)N2CCCC(C(=O)c3ccccc3OC)C2)c1C (stereo not given)
→ -12% | -2.1% | -20% | -3
> COc1cccc(NC(C)(C)c2nnnn2-c2c(C)cccc2C)c1
→ -1% | 3.3% | 0% | -12
> CCOC(=O)c1ccc(NC(=O)CSc2nnc(CCc3ccc(C)o3)n2-c2ccccc2)cc1
→ 1% | -4.7% | 12% | 4
> C=CCn1c(N)c(C(=O)OC(C)(C)C)c2nc3ccccc3nc21
→ -4% | ? | ? | ?
> Cc1ccc(C)n1-n1cnc2sc3c(c2c1=O)CCCCC3
→ -4% | -1.0% | 13% | 8
> Cc1ccccc1Nc1nnc(SCC(=O)NC2CCCc3ccccc32)s1 (stereo not given)
→ -3% | 0.0% | -4% | -1
> COC(=O)c1cc(Cl)c(NC(=O)C(C)C)cc1OC
→ -4% | -1.4% | 33% | -3
> CC(Oc1ccc2ccccc2c1)C(=O)NNC(=O)Nc1ccccc1 (stereo not given)
→ -3% | 1.8% | -17% | /
> O=C(COC(=O)CCC(=O)c1ccc(Cl)cc1)NCc1ccc(F)cc1
→ / | -1.5% | 0% | /
> CCOC(=O)c1c(C)nc(C)c(C(=O)OCC)c1-c1ccco1
→ -4% | 7.1% | -3% | 4
> O=C(C1CC1)N1c2ccccc2Sc2ccccc21
→ 19% | -3.0% | 29% | /
> Nc1cc(Cl)ccc1C(=O)OCC(=O)N1CCCCCC1
→ / | 0.3% | -1% | /
> O=C(N=Nc1c(O)[nH]c2ccc(F)cc12)C1COc2ccccc2O1 (stereo not given)
→ -1% | -0.6% | 10% | -10
> Cc1ncc(C[n+]2csc(CCOC(=O)CC34CC5CC(CC(C5)C3)C4)c2C)c(N)n1
→ -9% | 4.9% | 7% | -2

The list goes on:
Every second line gives: miR-21 FLuc | Rango complex inh | Rango release inh | GLA inh pH 4.5
> Cc1nc2c(-c3ccc(F)cc3)c(C)nn2c(C)c1CCC(=O)Nc1ccccc1F
→ 2% | -1.4% | -7% | 3
> COc1ccccc1CNC(=O)CSc1ccc(-c2cccs2)nn1
→ -2% | -0.9% | 0% | -1
> O=C1C(=O)N(O)C2CCCCC2N1O (stereo not given)
→ -6% | 0.1% | 11% | -2
> CN(C(=O)c1ccnn1C)C1CCCN(Cc2ccccc2F)C1 (stereo not given)
→ 0% | -0.4% | -6% | /
> Cc1nc2ccc(Cl)cc2c(-c2ccccc2)c1C(=O)N(C)C
→ 0% | -0.8% | -5% | /
> Cc1ccc(C(C)C)c(OCc2ccc(-c3nnco3)cc2)c1
→ -2% | -0.1% | -5% | -9
> COc1ccccc1NC(=S)N1CC(C)OC(C)C1 (stereo not given)
→ 0% | 0.1% | -2% | 6
> Cc1ccc2nc(/C(C#N)=C/c3ccc(O)c(O)c3)[nH]c2c1
→ -20% | ? | ? | /
> COc1cccc(CNC(=O)COC(=O)c2cccc(S(=O)(=O)N3CCCC3)c2)c1
→ / | 4.8% | -17% | /
> C/C=C/c1ccc(OCC(O)CN2CCCCC2CC)c(OC)c1 (stereo not given)
→ 0% | -1.3% | 6% | -2
> Cc1cccc(NC(=O)CCc2c(C)nn(-c3ccc(N4CCOCC4)nn3)c2C)c1
→ -29% | 0.1% | 11% | /
> C=CCc1ccccc1OCCCCN1CCCC1
→ -5% | -0.1% | 2% | -6
> C=CC[C@@H](CC(=O)N[C@@H](CO)Cc1ccccc1)C(=O)N[C@H](COC(=O)[C@@H](CC=C)Cc1ccc(F)cc1)Cc1ccccc1
→ / | 3.9% | 2% | /
> O=C(Cc1c(F)cccc1Cl)N1CCN(C(=O)c2ccco2)CC1
→ -1% | 5.2% | 7% | -5
> CC(C)O/C(=N/S(=O)(=O)c1ccc(Cl)cc1)c1ccccc1
→ / | -0.6% | -4% | /

Following part
Every second line gives: miR-21 FLuc | Rango complex inh | Rango release inh | GLA inh pH 4.5
> Cn1c(Cn2c(=O)sc3ccccc32)nnc1SCC(=O)NCc1ccc(F)cc1
→ 0% | -1.2% | -16% | 4
> Cc1ccc(F)c([C@H]2C3C=CCC(c4ccccc4)C3C(=O)N2Cc2ccccc2)c1 (stereo not given in full)
→ 26% | ? | -8% | 2
> COc1ccccc1C(=O)/C=C/c1ccc(N2CCCCC2)c([N+](=O)[O-])c1
→ 11% | -0.2% | 5% | -12
> O=C(c1cccc(S(=O)(=O)N2CCN(c3ccc(F)cc3)CC2)c1)N1CCCC1
→ / | 0.6% | -12% | /
> O=C(NCCc1ccccc1)c1cnn2c(C(F)F)cc(C3CC3)nc12
→ -18% | 3.4% | 13% | -25
> Cc1cccc(N2CC(C(=O)NCCC3=CCCCC3)CC2=O)c1C (stereo not given)
→ / | 1.3% | 27% | /
> CCOc1ccc(N(CC(=O)NC2CCCC2)S(=O)(=O)c2c(C)noc2C)cc1
→ 0% | -3.6% | -3% | 2
> O=C(c1ccc(C(F)(F)F)cc1)n1ccc(-c2cccs2)n1
→ -18% | -0.6% | 2% | 2
> Cc1nc2ccccn2c1C(=O)OCC#N
→ -1% | -3.7% | -26% | 4
> CCOc1ccc(N(C(=O)c2cc3ccccc3oc2=O)C2C=CS(=O)(=O)C2)cc1 (stereo not given)
→ 0% | -0.6% | 5% | -2
> Cc1cc(SCC(=O)OCC(=O)N(C)C2CCS(=O)(=O)C2)c(C)cc1Br (stereo not given)
→ / | 0.1% | -15% | /
> COc1cc(NC(=O)c2cc3nc(C)cc(C)n3n2)c(OC)cc1Cl
→ -39% | 4.6% | 7% | -19
> O=C1C2C3C=CC(C4CC34)C2C(=O)N1Cc1ccco1 (stereo not given)
→ -5% | -0.3% | -3% | 1
> Oc1ccc(Cl)cc1C=Nc1ccc2c3c(cccc13)CC2
→ -4% | ? | 1% | -15
> CCC(C)(C(=O)NC1CCCCC1)N(C(=O)C1CCC(=O)N1)c1ccccc1 (stereo not given)
→ 1% | 2.7% | 1% | 14

Continued.
Every second line gives: miR-21 FLuc | Rango complex inh | Rango release inh | GLA inh pH 4.5
> CCNC(=O)CSc1nnc(-c2cccc(S(=O)(=O)N3CCOCC3)c2)o1
→ / | -5.4% | 4% | /
> COc1cc(Cl)c(C)cc1NC(=O)COc1cc(C)nc(C(C)C)n1
→ -3% | -0.7% | 15% | 0
> N#CCSc1nc2ccccc2c(=O)n1CCC(=O)NCCc1ccccc1
→ -2% | 3.4% | -12% | -2
> CN(C(=O)c1ccc(-c2ccccc2)cc1)C1CCCCC1
→ / | -0.9% | 22% | /
> O=[N+]([O-])c1ccc(-c2csc(Nc3ccccc3)[n+]2Cc2ccccc2)cc1
→ -13% | -1.1% | -8% | -13
> Cc1ccc(C(=O)O/N=C(\N)c2nonc2N)cc1
→ -45% | -0.7% | 6% | 0
> N#Cc1ncc(Cl)c2ccccc12
→ -2% | 3.5% | 10% | -2
> O=C(CCSc1ccccn1)Nc1ccc(Br)cc1
→ -59% | 0.8% | -1% | -8
> COc1c(Cl)ccc(Cl)c1C(=O)NC(=S)N1CCOCC1
→ 0% | 0.8% | 2% | 5
> CC(=NCCN1CCNCC1)C1=C(O)CC(C)(C)CC1=O
→ -7% | 0.3% | 1% | -7
> CCOC(=O)C(C)Sc1nnc2n1C(C)(C)Cc1ccccc1-2 (stereo not given)
→ -6% | -2.7% | 1% | 8
> CCN(CC)c1nc(Nc2ccc(Cl)cc2)nc(OCC#N)n1
→ -15% | 0.5% | 0% | -28
> COc1ccc(OC)c(CC(NC(C)=O)C(=O)NC2CCN(c3cc(C)nc4ncnn34)CC2)c1 (stereo not given)
→ -1% | / | / | 3
> COc1ccc2[nH]c(=O)c(C(c3nnnn3C3CCCC3)N(C)C3CCCCC3)cc2c1 (stereo not given)
→ 0% | ? | 4% | -2
> O=C(Nc1nc2c(F)c(F)c(F)cc2s1)c1ccco1
→ -37% | -1.9% | 16% | /

Remaining list, next part.
Every second line gives: miR-21 FLuc | Rango complex inh | Rango release inh | GLA inh pH 4.5
> CCOC(=O)c1ccc(NC(=O)Oc2ccccc2)cc1
→ -12% | 4.1% | 3% | 6
> NC(=O)c1nsc(C(=O)N(CC(=O)NC2CCCC2)c2cccc(C(F)(F)F)c2)c1N
→ -2% | -0.8% | -17% | /
> O=C(CSc1ccc(-c2ccccc2)nn1)NCc1ccco1
→ -4% | -1.0% | 6% | -7
> CO/N=C/c1ccc(Oc2ccc([N+](=O)[O-])cc2[N+](=O)[O-])c(OC)c1
→ ? | 3.7% | 10% | 9
> COc1cc(C(=O)Nc2cccc(C(C)=O)c2)cc(OC)c1OC
→ 4% | -3.3% | 3% | 0
> COc1ccccc1OCC(=O)N1CCCC(Nc2cccc(F)c2)C1 (stereo not given)
→ -6% | -2.2% | 7% | /
> CC(c1cccnc1)N(C(=O)Nc1ccccc1)C1CCCCC1 (stereo not given)
→ -18% | -0.5% | -20% | 5
> Cc1cccc(NC(=O)N2CCN(Cc3ccc(Cl)cc3)CC2)c1
→ 8% | 0.4% | 2% | 0
> COc1cccc(NC(=O)CSc2nnc(Cn3cnc([N+](=O)[O-])n3)n2C)c1
→ -6% | -1.9% | -1% | -7
> O=C(OCC(=O)N1CCC(Cc2ccccc2)CC1)c1ccc(CO)cc1
→ / | 2.1% | -24% | /
> COCc1nnc(NC(=O)c2cccc(NC(=O)c3ccccc3)c2)s1
→ -2% | 1.6% | 3% | /
> CN(C)CCCN(C(=O)c1ccc(S(=O)(=O)N2CCCCCC2)cc1)c1nc2cc3c(cc2s1)OCCO3
→ / | -0.1% | 3% | /
> Cc1nc(SCC(=O)NC2CC2)c2c(C)c(C)sc2n1
→ 11% | ? | -9% | /
> O=C(/C=C/c1cccc([N+](=O)[O-])c1)N1CCN(Cc2ccccc2)CC1
→ -17% | -0.2% | -7% | /
> CN1/C(=C/C(=O)c2cccs2)Sc2ccccc21
→ -13% | / | / | -1

(further entries)
Every second line gives: miR-21 FLuc | Rango complex inh | Rango release inh | GLA inh pH 4.5
> Cc1ccc(/C=C/c2ccc(N(C)C)cc2)[n+](C)c1
→ ? | ? | ? | /
> CC(=O)Nc1ccc(N=Nc2ccc(O)cc2)cc1
→ -18% | -1.4% | 11% | -9
> O=C(COC(=O)c1c2c(nc3ccccc13)CCCC2)Nc1ccc2c(c1)OCO2
→ 17% | -0.1% | 0% | -6
> Cc1ccccc1-n1c([C@@H]2C[C@H]2c2ccccc2)n[nH]c1=S
→ -2% | -1.0% | 1% | -2
> COC(=O)c1sc2nc(SCc3cccc(Cl)c3)n(N)c(=O)c2c1C
→ -4% | -0.6% | -5% | -13
> Cc1ccc(Nc2nc(NCC3CCCO3)nc(N)c2[N+](=O)[O-])cc1 (stereo not given)
→ -10% | -0.4% | 19% | -6
> CC1CCc2sc(C(=O)NN)cc2C1 (stereo not given)
→ -7% | 2.3% | 0% | 7
> CCn1cc(C(=O)O)c(=O)c2cc(F)c(N3CCN(C(=S)NC(=O)c4cccc(C)c4)CC3)cc21
→ 2% | -2.1% | 0% | 1

Two entries from above in a different format:
SMILES,miR-21 FLuc,Rango complex inh,Rango release inh,GLA inh pH 4.5
Cc1ccccc1-n1c([C@@H]2C[C@H]2c2ccccc2)n[nH]c1=S,-2%,-1.0%,1%,-2
COC(=O)c1sc2nc(SCc3cccc(Cl)c3)n(N)c(=O)c2c1C,-4%,-0.6%,-5%,-13

Filtered by structure, the entries above containing an NH in an aromatic ring
Every second line gives: miR-21 FLuc | Rango complex inh | Rango release inh | GLA inh pH 4.5
> CCOC(=O)c1c(C)[nH]c(C(=O)N2CCCC(C(=O)c3ccccc3OC)C2)c1C (stereo not given)
→ -12% | -2.1% | -20% | -3
> O=C(N=Nc1c(O)[nH]c2ccc(F)cc12)C1COc2ccccc2O1 (stereo not given)
→ -1% | -0.6% | 10% | -10
> Cc1ccc2nc(/C(C#N)=C/c3ccc(O)c(O)c3)[nH]c2c1
→ -20% | ? | ? | /
> COc1ccc2[nH]c(=O)c(C(c3nnnn3C3CCCC3)N(C)C3CCCCC3)cc2c1 (stereo not given)
→ 0% | ? | 4% | -2
> Cc1ccccc1-n1c([C@@H]2C[C@H]2c2ccccc2)n[nH]c1=S
→ -2% | -1.0% | 1% | -2

An excerpt (hit frequency here may not be typical).
